D2 potentiator = positive allosteric modulators of human D2 dopamine receptor; P14416; DiscoveRx D2 beta-arrestin cells, luminescence, 90 min; 100% = 57 uM dopamine signal; potentiation, % (no concentration beside the values); hit rate 0.23% among 360,000; AID 624464; active = potentiation of 50% or more; inconclusive = 30% to 50%; inactive = 30% or less;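 also: compound concentration not given in the record; tested on top of an EC20 dose of dopamine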
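D2 cells co-treated with compound plus 50 nM dopamine (EC20) for 90 min at 37 deg C to detect potentiation. Beta-arrestin recruitment was read as enzyme-fragment luminescence after 1 h at ambient temperature. Full response was set by 57 uM dopamine.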
CtBP-E1A inh = blocks the CtBP interaction with E1A | activity change, % (no concentration beside the values) | AlphaScreen GST-E1A/His-CtBP binding, 1536-well; hits give low values; control for the full effect not named in the record | AID 651724 | hit rate 0.49% among 340,000; in the data active means activity change below about -65%; inconclusive means about -30% to -65%; inactive means above about -30%; also: % is scaled to controls: 0 for no effect and ±100 for the full control effect; compound concentration not given in the record
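In 5 uL wells, 23 nL compound meets equimolar GST-E1A and His-CtBP (5X stock 125 nM each) for 2 h, 37 °C. Beads (5X, 50 ug/mL) then 1 h, 37 °C, dark.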
TRPML1 agonist = agonists of human TRPML1 channel; hit rate 0.12% among 410,000; activation, % (no concentration beside the values); TRPML1-expressing cells, Ca2+ dye fluorescence, FDSS; host cell line not named in the record; reference of the full effect not given here; Q9GZU1; in the data active = activation above about 50%; inconclusive = about 30% to 50%; inactive = below about 30%; also: 0% is about no effect; the text of the record puts the active cut at 80%
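In this qHTS format, compounds were pin-transferred onto Ca8-dye-loaded TRPML1-DL cells induced with Tet overnight, and intracellular Ca2+ fluorescence was recorded kinetically for 110 s after a 10 s baseline. A subsequent 4uM final 54-4 (EC80) addition followed by a second 110 s read served as the antagonist phase.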
PINK1 modulator = PINK1 expression modulation; PINK1 immunofluorescence, high-content cytometry, 24 h; hit rate 0.2% among 410,000; Potency, µM (doses to about 76.6 µM), without a hit: at the highest dose activation (PINK1 increase), actives largely listed as activators; AID 624263; active = well fitted activation curve with a large enough effect; inconclusive = small, poorly fitted or top-dose-only effect; inactive = flat fitted curve, though single readings scatter; cell line not stated here;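 also: potency is read from the fitted curve at half-maximal effect; % of control where 0% means no effect; nearly all actives have a fitted effect of over 65% in size; a mitochondrial uncoupler was the plate control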
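PINK1 protein level read as immunofluorescence by microplate cytometer in a fixed, stained stable cell line after 24 h exposure to five compound concentrations, with CCCP as control.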
D2 agonist = agonists of human D2 dopamine receptor (beta-arrestin) | DiscoveRx PathHunter D2 beta-arrestin, luminescence, 90 min; 100% = 57 uM dopamine signal | P14416 | activation, % (concentration not given with the values) | hit rate 0.084% among 360,000 | AID 624465; in the data active = activation above about 40%; inconclusive = about 15% to 40%; inactive = below about 15%; also: compound concentration not given in the record; the text of the record calls up to 30% inactive
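DiscoveRx PathHunter D2 beta-arrestin cells (2,100/well) attached overnight, then compound-stimulated 90 min at 37 C in HBSS/10 mM HEPES/0.1% Tween-20 buffer; beta-galactosidase complementation read by luminescence after 1 h at ambient temperature. Dopamine 57 uM final (EC100) as control.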
Six1-Eya2 blk = Six1/Eya2 interaction inhibition. AlphaScreen GST-Six1/His-Eya2 binding, biochemical; hits give low values; control for the full effect not named in the record. activity change, % (test concentration not listed). hit rate 0.56% among 360,000. AID 651725; in the data active = activity change below about -65%; inconclusive = about -30% to -65%; inactive = above about -30%; also: % is scaled to controls: 0 for no effect and ±100 for the full control effect; compound concentration not given in the record
Target sequence (O00167 whole entry, looked up): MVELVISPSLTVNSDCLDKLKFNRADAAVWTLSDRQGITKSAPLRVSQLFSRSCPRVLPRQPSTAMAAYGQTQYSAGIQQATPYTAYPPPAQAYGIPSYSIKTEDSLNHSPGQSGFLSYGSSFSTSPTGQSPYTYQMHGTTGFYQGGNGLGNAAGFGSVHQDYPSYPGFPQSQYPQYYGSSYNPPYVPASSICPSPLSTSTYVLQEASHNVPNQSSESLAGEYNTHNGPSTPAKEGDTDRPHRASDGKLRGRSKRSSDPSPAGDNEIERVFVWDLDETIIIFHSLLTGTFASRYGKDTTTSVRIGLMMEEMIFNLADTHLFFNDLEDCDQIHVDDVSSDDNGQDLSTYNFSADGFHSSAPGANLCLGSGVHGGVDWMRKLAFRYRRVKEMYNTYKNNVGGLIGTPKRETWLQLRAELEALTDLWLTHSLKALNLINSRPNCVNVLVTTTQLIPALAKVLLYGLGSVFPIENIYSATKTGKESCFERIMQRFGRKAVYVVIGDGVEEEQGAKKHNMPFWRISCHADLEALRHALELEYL
Target sequence (Q15475 whole entry, looked up): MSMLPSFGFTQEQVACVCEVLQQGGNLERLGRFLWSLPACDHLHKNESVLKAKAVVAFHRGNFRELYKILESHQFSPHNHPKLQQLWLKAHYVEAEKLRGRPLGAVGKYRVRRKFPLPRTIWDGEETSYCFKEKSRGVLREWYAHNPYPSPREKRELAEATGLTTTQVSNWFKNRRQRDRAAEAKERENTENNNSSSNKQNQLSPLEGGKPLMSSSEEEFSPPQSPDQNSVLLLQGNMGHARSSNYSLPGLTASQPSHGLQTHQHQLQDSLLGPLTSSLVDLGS
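Six1/Eya2 binding was read as AlphaScreen signal after compounds were pinned into GST-Six1 plus His-tagged Eya2 (5X stock 250/500 nM) in pH 8.0 Tris/NaCl/TCEP buffer, beads added, then incubated 1 h, 37 C, dark.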
* marks the source's active call; other numbers are inactive results; [ ] = dose if it differs, or a comment.

For Cc1ccc(Cl)cc1N1CCN(Cc2nc3c(c(=O)[nH]c(=O)n3C)n2Cc2ccccc2F)CC1 the results were D2 potentiator -6.8, CtBP-E1A inh 2.7, TRPML1 agonist -1.5, PINK1 modulator -0.5%, D2 agonist -7.5 and Six1-Eya2 blk -1.0.
Cc1ccc(C(=O)OCC(=O)Nc2cccc(Br)c2)s1 was read as D2 potentiator -19.3, CtBP-E1A inh -1.5, TRPML1 agonist 0.0, PINK1 modulator 0.1%, D2 agonist 2.2 and Six1-Eya2 blk 11.1.
Screening COc1ccc(C2C(C(=O)NCc3ccco3)c3ccccc3C(=O)N2C)cc1 (stereo not drawn) returned D2 potentiator 6.3, CtBP-E1A inh 7.0, TRPML1 agonist 0.3, PINK1 modulator 7.0%, D2 agonist -2.9 and Six1-Eya2 blk -10.9.
`Cc1ccc(C(=O)C=CNNC(=O)c2ccccc2)cc1` gave D2 potentiator -24.7, PINK1 modulator 2.7%, D2 agonist -11.4 and Six1-Eya2 blk 6.5.
`COc1cc(Cl)c(C)cc1NC(=O)CSc1nnc(CCC(=O)O)c(=O)[nH]1` gave D2 potentiator -6.7, CtBP-E1A inh 3.1, TRPML1 agonist 0.0, PINK1 modulator 1.2%, D2 agonist -3.0 and Six1-Eya2 blk -2.4.
CC(C)C(NC(=O)c1ccccc1NC(=O)c1ccco1)C(=O)O (stereo not drawn) was read as D2 potentiator -18.7, CtBP-E1A inh 2.1, TRPML1 agonist 0.5, D2 agonist -3.3 and Six1-Eya2 blk 2.9.
Screening COc1ccc(C(=O)NCCc2ccc(Cl)cc2)cc1S(=O)(=O)N1CCCCC1C (stereo not drawn) returned D2 potentiator -9.2, TRPML1 agonist 0.7, PINK1 modulator 0.5%, D2 agonist -4.3 and Six1-Eya2 blk -0.2.
CC(=O)N1CCSc2ccc(S(=O)(=O)Nc3ccc(C)cc3)cc21 was read as D2 potentiator -7.0, CtBP-E1A inh 0.3, TRPML1 agonist -0.5, PINK1 modulator 0.9%, D2 agonist 2.3 and Six1-Eya2 blk 0.1.
Screening Nc1nnc(SCC(=O)NCCOc2ccccc2)s1 returned D2 potentiator -10.0, CtBP-E1A inh 0.6, TRPML1 agonist -0.7, PINK1 modulator 1.0%, D2 agonist 0.8 and Six1-Eya2 blk -0.2.
O=C(c1cc2ccccc2cc1O)N1CCN(c2ccc([N+](=O)[O-])cc2)CC1 was read as D2 potentiator 3.5, CtBP-E1A inh 0.7, TRPML1 agonist 0.2, PINK1 modulator -3.7%, D2 agonist -2.7 and Six1-Eya2 blk -19.9.
For COc1cc(S(=O)(=O)N2CCN(C(=O)c3ccccc3F)CC2)c(OC)cc1NC(C)=O the results were D2 potentiator 0.5, CtBP-E1A inh -4.3, TRPML1 agonist -1.7, PINK1 modulator -0.1%, D2 agonist -4.0 and Six1-Eya2 blk 3.7.
Screening CC(O)Cn1c(N2CCCC2)nc2c1c(=O)[nH]c(=O)n2C (stereo not drawn) returned D2 potentiator -5.3, CtBP-E1A inh 2.5, TRPML1 agonist -0.5, PINK1 modulator -0.2%, D2 agonist 0.2 and Six1-Eya2 blk 11.0.
Screening Cc1ccc(NC(=O)N2CCc3ccccc3C2)cc1 returned D2 potentiator -8.4, CtBP-E1A inh 8.2, TRPML1 agonist 0.2, PINK1 modulator 3.7%[38.3 µM], D2 agonist 1.1 and Six1-Eya2 blk 5.9.
O=C(CCNC(=O)c1ccc([N+](=O)[O-])cc1)Nc1cc(C(F)(F)F)ccc1N1CCOCC1 was read as D2 potentiator -2.3, CtBP-E1A inh -2.6, TRPML1 agonist -0.5, PINK1 modulator 1.9%, D2 agonist 0.3 and Six1-Eya2 blk -1.4.
Screening COc1ccc([N+](=O)[O-])cc1NC(=O)C(C)N1CCN(C(=O)c2ccco2)CC1 (stereo not drawn) returned D2 potentiator -2.5, CtBP-E1A inh 6.2, TRPML1 agonist -0.7, PINK1 modulator 1.5%, D2 agonist -4.6 and Six1-Eya2 blk -5.7.
O=C(CSCc1ccccc1)Nc1nccs1 was read as D2 potentiator -2.9, CtBP-E1A inh -0.7, TRPML1 agonist -0.9, PINK1 modulator 1.1%, D2 agonist -2.5 and Six1-Eya2 blk -6.3.
Screening COc1cccc(-c2csc(N3CCN(C(=O)Nc4ccccc4Cl)CC3)n2)c1 returned D2 potentiator -6.3, TRPML1 agonist 3.1, PINK1 modulator -0.2%, D2 agonist 1.2 and Six1-Eya2 blk -8.9.
`O=C1C2C3C=CC(C2C(=O)N1c1ccccc1O)C1C2C(=O)N(c4ccccc4O)C(=O)C2C31` (stereo not drawn) gave D2 potentiator -4.1, TRPML1 agonist 1.1, PINK1 modulator 0.7%, D2 agonist -3.7 and Six1-Eya2 blk 2.9.
`CCCNC(=O)C1(C)CCN(Cc2csc3ccccc23)C1` (stereo not drawn) gave D2 potentiator -9.0, CtBP-E1A inh -3.8, TRPML1 agonist -1.0, PINK1 modulator 0.5%, D2 agonist -2.5 and Six1-Eya2 blk -11.2.
Screening O=C(NCCNC(=O)c1ccc(-c2ccc(Cl)c(Cl)c2)o1)c1cnccn1 returned D2 potentiator 5.7, CtBP-E1A inh -10.3, TRPML1 agonist 1.1, PINK1 modulator -1.6%, D2 agonist 7.9 and Six1-Eya2 blk -10.6.
`CCOc1ncccc1C(=O)N1CCN(c2cccc(C)c2C)CC1` gave D2 potentiator -13.8, CtBP-E1A inh -7.0, TRPML1 agonist 3.4, PINK1 modulator 0.5%, D2 agonist -2.6 and Six1-Eya2 blk 1.0.
`CCCCc1ccc(NC(=S)NCCc2ccc(F)cc2)cc1` gave D2 potentiator -10.8, CtBP-E1A inh 0.1, TRPML1 agonist 2.2, PINK1 modulator 0.4%, D2 agonist 0.2 and Six1-Eya2 blk 3.3.
CCOC(=O)c1c(C)[nH]c(C(=O)OCc2ccc([N+](=O)[O-])cc2)c1C was read as D2 potentiator -10.9, CtBP-E1A inh -2.2, TRPML1 agonist 2.9, PINK1 modulator 3.1%, D2 agonist 0.5 and Six1-Eya2 blk -9.7.
Screening O=C(c1ccc([N+](=O)[O-])o1)N1CCN(c2nc3c(F)cc(F)cc3s2)CC1 returned D2 potentiator inconclusive, CtBP-E1A inh -1.6, TRPML1 agonist -0.7, PINK1 modulator 9.6%, D2 agonist 6.5 and Six1-Eya2 blk -11.2.
COc1ccc(S(=O)(=O)NC(CC(=O)NCc2ccco2)C(C)C)cc1 (stereo not drawn) was read as D2 potentiator -20.4, CtBP-E1A inh 13.3, TRPML1 agonist 0.1, PINK1 modulator 0.2%, D2 agonist -2.3 and Six1-Eya2 blk -10.8.
Screening O=C(OC[C@@H]1CCCN2CCCC[C@H]12)c1cc2ccccc2oc1=O returned D2 potentiator 0.6, CtBP-E1A inh -6.0, TRPML1 agonist 0.1, PINK1 modulator 0.9%, D2 agonist -3.8 and Six1-Eya2 blk 7.3.
`Cc1[nH]nc2c1C(c1c[nH]c3ccccc13)C(C#N)=C(N)O2` (stereo not drawn) gave D2 potentiator -9.3, CtBP-E1A inh 4.1, TRPML1 agonist 0.7, PINK1 modulator -0.2%, D2 agonist -3.3 and Six1-Eya2 blk 12.8.
COc1ccc(NC(=O)c2sc3nc(N4CCOCC4)c4c(c3c2N)CC(C)(C)OC4)c(OC)c1 was read as D2 potentiator -5.5, CtBP-E1A inh 12.8, TRPML1 agonist -0.5, PINK1 modulator 8.6%, D2 agonist -6.9 and Six1-Eya2 blk -1.3.
`CC1(C)CC(=O)c2c(-c3cccs3)n[nH]c2C1` gave D2 potentiator -14.6, CtBP-E1A inh -0.8, TRPML1 agonist -0.5, D2 agonist -3.1 and Six1-Eya2 blk -1.7.
O=C(c1ccc2c(c1)OCO2)N1CCCC1 was read as D2 potentiator -2.7, CtBP-E1A inh -3.2, TRPML1 agonist 0.9, PINK1 modulator -1.9%, D2 agonist -2.1 and Six1-Eya2 blk 3.5.
For CC1CCCC(C)N1NC(=O)c1cccc(S(=O)(=O)N2CCc3ccccc32)c1 (stereo not drawn) the results were D2 potentiator -3.9, CtBP-E1A inh 4.6, TRPML1 agonist 6.8, PINK1 modulator 1.4%, D2 agonist 12.3 and Six1-Eya2 blk 3.3.
Screening CCOC(=O)C1CCN(C(=O)c2cccc(S(=O)(=O)N3CCc4ccccc43)c2)CC1 returned D2 potentiator 0.5, TRPML1 agonist 0.4, PINK1 modulator -0.4%, D2 agonist -2.9 and Six1-Eya2 blk 0.6.
Screening c1ccc(CN(Cc2ccccc2)c2ncnc3c2nnn3Cc2ccccc2)cc1 returned D2 potentiator -7.3, CtBP-E1A inh 4.4, TRPML1 agonist -0.4, PINK1 modulator 3.7%, D2 agonist -7.0 and Six1-Eya2 blk 9.8.
For CCOC(=O)c1c(-c2ccccc2)cn2c(C)cc(C)nc12 the results were D2 potentiator -6.5, CtBP-E1A inh 0.4, TRPML1 agonist 0.6, PINK1 modulator 0.8%, D2 agonist -0.1 and Six1-Eya2 blk 5.0.
For CCCCOC(=O)C(C)c1c(C)[nH]c(=S)[nH]c1=O (stereo not drawn) the results were D2 potentiator -11.2, CtBP-E1A inh 5.5, TRPML1 agonist 0.7, PINK1 modulator 2.8%, D2 agonist -3.5 and Six1-Eya2 blk 0.1.
O=C(NCC(=O)N(Cc1cccs1)C(C(=O)NC1CCCC1)c1ccncc1)c1ccco1 (stereo not drawn) was read as D2 potentiator -9.6, CtBP-E1A inh 2.6, TRPML1 agonist 0.5, PINK1 modulator 3.9%, D2 agonist -4.1 and Six1-Eya2 blk -0.2.
For NS(=O)(=O)c1ccc(Nc2ccc3cc(S(=O)(=O)N4CCCCC4)ccc3n2)cc1 the results were D2 potentiator 2.8, TRPML1 agonist 2.4, PINK1 modulator -1.0%, D2 agonist 14.4 and Six1-Eya2 blk 3.3.
O=C(NCc1ccccc1)c1cccc(NC(=O)c2ccco2)c1 was read as D2 potentiator -12.4, CtBP-E1A inh -5.2, TRPML1 agonist 1.2, PINK1 modulator -1.5%, D2 agonist -3.0 and Six1-Eya2 blk -2.3.
Cc1ccc(Sc2nc3c(c(=O)[nH]c(=O)n3C)n2CCc2ccccc2)cc1 was read as D2 potentiator -3.1, CtBP-E1A inh 3.8, TRPML1 agonist -1.1, PINK1 modulator 10.8%, D2 agonist 1.2 and Six1-Eya2 blk -4.5.
For CCC1(C)COC(c2ccc(OC)c(OC)c2)OC1 (stereo not drawn) the results were D2 potentiator -0.6, CtBP-E1A inh 6.5, TRPML1 agonist 0.2, PINK1 modulator 0.7%, D2 agonist -3.7 and Six1-Eya2 blk 3.4.
For O=C1CN(C(=O)CNC(=O)c2ccc(Cl)cc2Cl)CCN1 the results were D2 potentiator 0.3, CtBP-E1A inh -0.3, TRPML1 agonist 0.5, PINK1 modulator 0.2%, D2 agonist -2.6 and Six1-Eya2 blk 0.0.

Assay outcomes deposited in PubChem by National Center for Advancing Translational Sciences (NCATS).
